TDP1 block = inhibitors of human tyrosyl-DNA phosphodiesterase TDP1 | Potency, µM (doses to about 130 µM), for inactives: top-dose activity change, negative = inhibition, hits mostly inhibitors | hit rate 0.28% among 350,000 | AID 485290 | recombinant TDP1, AlphaScreen DNA substrate cleavage | Q9NUW8; active = well fitted inhibition curve with a large enough effect; note: nearly all actives have a fitted effect of over 40% in size
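Tdp1 1 nM final; 15 min RT w/ cpd; substrate 15 nM, 5 min; beads 10 ug/ml, 10 min; AlphaScreen read. Neg ctrl: no enzyme.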
An asterisk follows results filed as active; & = joins results of further samples; [ ] = another dose, or the depositor's remark. % is set by controls: 0 for no effect and ±100 for the full control effect; potency is the fitted concentration of half-maximal effect. An excerpt; most or all hits stand in other tables.

SMILES | TDP1 block
CCOC(=O)C1=C[C@]2(CC)CCCN3CCc4c(n1c1ccccc41)[C@@H]32 | 5%
CC(=O)c1ccc(Cl)c(Cl)c1Cl | 0%&8%
C[C@@H]1C[C@H]2[C@@H]3CCC4=CC(=O)C=C[C@]4(C)[C@@]3(F)[C@@H](O)C[C@]2(C)[C@@]1(O)C(=O)CO | 1%&10%&9%&6%
CO[C@@H]1[C@@H](OC(N)=O)[C@@H](O)[C@H](Oc2ccc3c(O)c(NC(=O)c4ccc(O)c(CC=C(C)C)c4)c(=O)oc3c2C)OC1(C)C | 6%
CC(=O)c1cccc(N(C(=O)c2ccccn2)C(C(=O)NC2CCCCC2)c2cccs2)c1 (stereo not given) | 0%
CC(C)C1CCC(C(=O)N[C@H](Cc2ccccc2)C(=O)O)CC1 (stereo not given in full) | 3%
O=C(Nc1ccccc1)c1ccccc1O | -4%
Clc1ccc(CN(Cc2ccc(Cl)cc2)c2nn[nH]n2)cc1 | -5%
CCOC(=O)c1c(C)oc2ccc(O)cc12 | 1%
CCOc1ccc(CN(C)CC(=O)Nc2cc(C)c(C)cc2[N+](=O)[O-])cc1 | 5%
Cc1ccc(C)c(N2CCN(C(=O)CCCn3ncn4c(cc5occc54)c3=O)CC2)c1 | 4%&8%
C=CC(C)(O)CCC=C(C)C (stereo not given) | -6%[56.1 µM]

Reformatted as labelled records: part of the list above
CC(=O)c1cccc(N(C(=O)c2ccccn2)C(C(=O)NC2CCCCC2)c2cccs2)c1 (stereo not given)
  TDP1 block = 0%

Cc1ccc(C)c(N2CCN(C(=O)CCCn3ncn4c(cc5occc54)c3=O)CC2)c1
  TDP1 block = 4%&8%

Gathered by group: those above with four or more nitrogen atoms.
SMILES | TDP1 block
Clc1ccc(CN(Cc2ccc(Cl)cc2)c2nn[nH]n2)cc1 | -5%
Cc1ccc(C)c(N2CCN(C(=O)CCCn3ncn4c(cc5occc54)c3=O)CC2)c1 | 4%&8%

Reformatted with each value named: entries from further up.
CO[C@@H]1[C@@H](OC(N)=O)[C@@H](O)[C@H](Oc2ccc3c(O)c(NC(=O)c4ccc(O)c(CC=C(C)C)c4)c(=O)oc3c2C)OC1(C)C
  TDP1 block: 6%
CC(=O)c1cccc(N(C(=O)c2ccccn2)C(C(=O)NC2CCCCC2)c2cccs2)c1 (stereo not given)
  TDP1 block: 0%
CC(C)C1CCC(C(=O)N[C@H](Cc2ccccc2)C(=O)O)CC1 (stereo not given in full)
  TDP1 block: 3%

Other structures.
SMILES | TDP1 block
CCN(CC)CCCC(C)Nc1ccnc2cc(Cl)ccc12 (stereo not given) | 7%&9%[56.1 µM]
Nc1ccc(S(=O)(=O)c2ccc(N)cc2)cc1 | 8%
O=C(c1cc(-c2ccccc2Cl)nc2ccccc12)N1CCN(c2ccccn2)CC1 | 3%
COc1cc(NC(C)CCCN)c2ncccc2c1Oc1ccccc1 (stereo not given) | 6%
Cc1cc(NS(=O)(=O)c2ccc(N)cc2)no1 | 7%
CC(=O)Nc1cccc(O)c1 | 0%&-4%&5%
Cc1cccc(N(C)C(=S)Oc2ccc3ccccc3c2)c1 | -8%
NCCCC(=O)O | 1%
CCCC(CCC)C(=O)O | 8%
C#C[C@]1(O)CCC2C3CCC4=C(CCC(=O)C4)C3CC[C@@]21C (stereo not given in full) | 15%
CC1CCCC(NC(=S)Nc2ccc(SC(F)F)cc2)C1C (stereo not given) | -1%
C[C@@H]([C@H](O)c1ccc(O)cc1)N1CCC(Cc2ccccc2)CC1 | 10%&4%[56.1 µM]
C#C[C@]1(O)CC[C@H]2[C@@H]3CCC4=Cc5oncc5C[C@]4(C)[C@H]3CC[C@@]21C | 7%
N[C@H](CO)C(=O)O | 7%[56.1 µM]
C[C@]12CCC(=O)C=C1CC[C@@H]1[C@@H]2C(=O)C[C@@]2(C)[C@H]1CC[C@]2(O)C(=O)CO | 6%
O=C(O)CC(O)C(=O)O (stereo not given) | -7%
Cc1ccc(C)c2c(N)c3c(nc12)CCCCC3 (tested in a mixture with another compound) | 3%
O=C(NCCc1ccccc1)c1oc2ccccc2c1COc1ccccc1 | -5%
CC(O)(P(=O)(O)O)P(=O)(O)O | 4%

Five compounds out of the list above, arranged by their value in TDP1 block, rising:
SMILES | TDP1 block
O=C(O)CC(O)C(=O)O (stereo not given) | -7%
O=C(NCCc1ccccc1)c1oc2ccccc2c1COc1ccccc1 | -5%
CC(O)(P(=O)(O)O)P(=O)(O)O | 4%
C[C@]12CCC(=O)C=C1CC[C@@H]1[C@@H]2C(=O)C[C@@]2(C)[C@H]1CC[C@]2(O)C(=O)CO | 6%
C#C[C@]1(O)CC[C@H]2[C@@H]3CCC4=Cc5oncc5C[C@]4(C)[C@H]3CC[C@@]21C | 7%

Assay outcomes: PubChem BioAssay, National Center for Advancing Translational Sciences (NCATS)
